Screening data as filed in PubChem BioAssay.
RGS12 GoLoco inh: inhibitors of human Gai1-RGS12 GoLoco interaction (red fluorophore). P63096. actives 0.44% (n = 230,000). Gai1:RGS12 GoLoco peptide FP, rhodamine, 10 min. Potency, µM (titrated, usually from 61.6 µM), for inactives: at the highest dose activity, negative = inhibition, usual class: inhibitors; active = well fitted inhibition curve with a large enough effect, not every such curve was filed as active; inactive = no such curve, though single readings can be large or run the other way; also: nearly all actives have a fitted effect of over 30% in size; many of its hits are not listed in these tables
Target sequence (P63096 whole entry, looked up): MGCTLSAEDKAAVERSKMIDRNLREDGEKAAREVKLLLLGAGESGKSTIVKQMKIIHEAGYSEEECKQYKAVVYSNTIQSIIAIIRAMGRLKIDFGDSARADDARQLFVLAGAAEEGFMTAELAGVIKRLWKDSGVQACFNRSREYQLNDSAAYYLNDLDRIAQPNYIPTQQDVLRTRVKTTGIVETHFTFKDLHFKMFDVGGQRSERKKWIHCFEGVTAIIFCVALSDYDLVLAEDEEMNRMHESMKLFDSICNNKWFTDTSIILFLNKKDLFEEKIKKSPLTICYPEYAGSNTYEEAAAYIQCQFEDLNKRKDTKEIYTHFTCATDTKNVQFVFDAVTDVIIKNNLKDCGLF
RECQ1 helicase: blocks DNA unwinding by human RECQ1 | P46063 | RECQ1 DNA unwinding, red fluorescence kinetic read | Potency, µM (titrated, usually from 57.3 µM), without a hit: at the highest dose activity, negative = inhibition, most hits filed as inhibitors | actives 0.54% (n = 240,000);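 also: plate controls were vehicle for no effect and no enzyme for full effect; nearly all actives have a fitted effect of over 30% in size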
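50 nM RECQ1T1 preincubated 15 min with compound in Tris pH 8.0 buffer with MgCl2, DTT, Tween-20 and 2.5 ug/ml poly(dI-dC); started with 200 nM TAMRA/BHQ-2 forked duplex and 2 mM ATP. Unwinding read as fluorescence (525/598 nm), two reads 2 h apart.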
KDM4E inh: blocks human JMJD2E demethylase activity; JMJD2E catalytic domain, FDH-coupled NADH fluorescence (FDH is formaldehyde dehydrogenase); B2RXH2; Potency, µM (highest dose often 57.1 µM), without a hit: top-dose activity change, negative = inhibition, usual class: inhibitors; actives 1.6% (n = 230,000); active = well fitted inhibition curve with a large enough effect, not every such curve was filed as active; inconclusive = small, poorly fitted or top-dose-only effect, or another doubt; inactive = no such curve, though single readings can be large or run the other way;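 also: 0% = wells with enzyme and -100% = buffer wells without enzyme; nearly all actives have a fitted effect of over 50% in size; many of its hits are not listed in these tables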
Target sequence (B2RXH2 1-337 limits assumed): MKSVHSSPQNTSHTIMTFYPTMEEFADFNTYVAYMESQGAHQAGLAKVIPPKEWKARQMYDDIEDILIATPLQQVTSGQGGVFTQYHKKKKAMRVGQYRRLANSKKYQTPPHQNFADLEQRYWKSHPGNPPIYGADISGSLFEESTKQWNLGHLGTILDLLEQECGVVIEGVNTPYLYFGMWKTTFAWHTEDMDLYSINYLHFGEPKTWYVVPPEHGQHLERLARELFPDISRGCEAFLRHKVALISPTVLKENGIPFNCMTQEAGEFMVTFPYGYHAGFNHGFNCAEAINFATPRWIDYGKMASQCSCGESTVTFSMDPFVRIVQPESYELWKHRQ
TRb-SRC2 inh: inhibitors of human thyroid hormone receptor beta-SRC2 interaction. Potency, µM (doses to about 106 µM), without a hit: top-dose activity change, negative = inhibition, usual class: inhibitors. actives 0.065% (n = 280,000). TRbeta-SRC2 peptide binding, fluorescence polarization; receptor liganded with 1 µM T3. P10828;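 also: plate controls were bound peptide for no effect and peptide without receptor for full effect; nearly all actives have a fitted effect of over 50% in size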
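A fluorescence polarization screen tested compounds at multiple concentrations against complex formation between 0.6 uM TRb ligand-binding domain and 20 nM Texas Red SRC2 peptide, with 1 uM T3 present; readout after 5 hr.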
Tau fibril FP: tau fibrillization inhibition (FP); actives 0.39% (n = 280,000); P10636; Potency, µM (doses to about 57.7 µM), without a hit: top-dose activity, negative = inhibition, most hits filed as inhibitors; K18 P301L tau heparin fibrillization, Alexa594 FP, 6 h; also: nearly all actives have a fitted effect of over 55% in size
Target sequence (P10636 561-689 P618L limits assumed): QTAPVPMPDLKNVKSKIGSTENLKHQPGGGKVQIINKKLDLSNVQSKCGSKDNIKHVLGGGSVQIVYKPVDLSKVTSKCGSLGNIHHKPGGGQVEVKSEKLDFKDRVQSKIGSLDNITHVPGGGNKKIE
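Compound effects on tau fibrillization are measured by Alexa 594 fluorescence polarization (ex 555, em 632 nm). K18 P301L tau is used at 15 uM with 0.24 uM labeled tracer, and 20 uM heparin induces aggregation over 6 hr at 37 C.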
TexasRed fluor: counter-screen for TRb-SRC2 inhibitors: fluorescence interference; actives 0.29% (n = 280,000); TRb/SRC2 Texas Red total fluorescence interference; Potency, µM (top dose mostly 106 µM), inactives show at the top dose fluorescence change, negative = quenching; AID 1479; active = well fitted curve in either direction with a large enough effect; inconclusive = small, poorly fitted or top-dose-only effect
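Human TRβ ligand-binding domain (0.6 uM) and Texas Red SRC2 peptide (20 nM) in Tris buffer with 1 uM T3 and 5% DMSO were incubated with pinned compound for 5 hr at ambient temperature. Total fluorescence was computed as S + 2P (555/632 nm).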
Tau fibril ThT: inhibitors of human tau fibril formation, thioflavin T binding | Potency, µM (highest dose often 57.4 µM), without a hit: at the highest dose activity, negative = inhibition, hits mostly inhibitors | actives 2.1% (n = 270,000) | AID 1460 | recombinant tau K18 P301L (four-repeat tau fragment), heparin-induced fibrillization, ThT fluorescence; also: nearly all actives have a fitted effect of over 55% in size
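Heparin-induced fibrillization of the P301L-mutant K18 repeat-domain fragment of human tau was followed by ThT binding in quantitative high-throughput format.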
Numbers without * were called inactive; i = inactive; ? = inconclusive; nt = not tested or not shown; & = joins results of further samples; [ ] = dose if it differs, or a comment. Unless noted, calls follow the shape of the dose curve; as a rule, active = well fitted curve in the direction sought with a large enough effect; inconclusive = small, poorly fitted or top-dose-only effect, or another doubt; inactive = no such curve, though single readings can be large; an effect the other way counts as inactive or inconclusive. Unless noted, % is scaled to controls: 0 for no effect and ±100 for the full control effect; potency is read from the fitted curve at half-maximal effect. Not all compounds are listed (hit frequency here may not be typical).

Abbreviations: A = RGS12 GoLoco inh; B = RECQ1 helicase; C = KDM4E inh; D = TRb-SRC2 inh; E = Tau fibril FP; F = TexasRed fluor; G = Tau fibril ThT
1. COc1ccc(-c2nc(C#N)c(NCCCN(C)C)o2)cc1OC
  A: 18%; B: -7%; C: ?; D: 10%; E: 3%; F: -4%; G: -4%

2. COCCn1c(-c2ccccc2)nc2oc3ccccc3c(=O)c2c1=O
  A: 9%; B: -3%; C: 1%; D: 3%; E: -1%; F: 0%; G: -3%

3. COc1ccc(NC(=O)c2ccc(Br)o2)cc1
  A: 8%[88.7 µM]; B: -8%[81.1 µM]; C: -5%; D: -1%&3%; E: 12%[81.3 µM]; F: -4%&-4%; G: ?

4. O=C(O)c1c2c(nc3ccc(Cl)cc13)CCC2
  A: 0%; B: 28µM*; C: -10%; D: -3%; E: -9%; F: 0%; G: -12%

5. O=C(CN1CCC(C(=O)c2cccc(F)c2)CC1)NCc1cccs1
  A: -4%; B: -3%; C: -1%; D: -11%; E: 1%; F: -1%; G: -10%

6. CC1=C(C(=O)NCc2ccc3c(c2)OCO3)C2(CCC(C)CC2)OC1=O (stereo not given)
  A: 0%; B: i; C: -5%; D: -9%; E: -5%; F: 1%; G: -16%

7. O=C(/C=C/c1ccc(Cl)c(Cl)c1)NCc1ccco1
  A: 5%; B: -1%; C: 2%; D: -9%; E: 0%; F: 3%; G: -4%

8. COc1cccc(NC(=O)CSC(N)=O)c1
  A: 16%; B: -1%; C: 3%; D: 0%; E: 2%; F: -4%; G: -1%

9. Nc1n[nH]c2cc(=O)n(-c3cccc(C(F)(F)F)c3)nc12
  A: -19%; B: -8%; C: 10%; D: 5%; E: 10%; F: 0%; G: -9%

10. COc1ccc(-c2cc(C(F)(F)F)nc(SCC(=O)Nc3ccc4c(c3)OCO4)n2)cc1OC
  A: 10%; B: -10%; C: ?; D: 6%; E: -6%; F: -1%; G: -6%

11. COc1cccc(-c2nc(-c3ccc(NC(=O)c4cccs4)cc3)no2)c1
  A: 9%; B: -9%; C: ?; D: 4%; E: ?; F: -4%; G: 8%

12. COc1ccc(-c2nc(-c3ccc(NC(=O)c4ccncc4)cc3)no2)cc1OC
  A: -2%; B: 11%; C: -20%; D: -7%; E: -4%; F: 1%; G: 3%

13. COc1cccc(CN(C)CC(=O)Nc2ccccc2N2CCOCC2)c1OC
  A: -33%; B: 9%; C: -3%; D: 1%; E: 0%; F: -1%; G: 5%

14. O=C(NC(Cc1ccccc1)C(=O)O)/C(=C\c1ccco1)NC(=O)c1ccccc1 (stereo not given)
  A: 0%; B: 3%; C: ?; D: 5%; E: 1%; F: 0%; G: -7%

15. COc1ccc(C2C(C(=O)N3CCN(c4ccccc4)CC3)c3ccccc3C(=O)N2C)cc1OC (stereo not given)
  A: 2%; B: -2%; C: 3%; D: -15%; E: 7%; F: -1%; G: 7%

Laid out differently: entries from further up.
nr	SMILES	RGS12 GoLoco inh	RECQ1 helicase	KDM4E inh	TRb-SRC2 inh	Tau fibril FP	TexasRed fluor	Tau fibril ThT
1	COc1ccc(-c2nc(C#N)c(NCCCN(C)C)o2)cc1OC	18%	-7%	?	10%	3%	-4%	-4%
2	COCCn1c(-c2ccccc2)nc2oc3ccccc3c(=O)c2c1=O	9%	-3%	1%	3%	-1%	0%	-3%
3	COc1ccc(NC(=O)c2ccc(Br)o2)cc1	8%[88.7 µM]	-8%[81.1 µM]	-5%	-1%&3%	12%[81.3 µM]	-4%&-4%	?
4	O=C(O)c1c2c(nc3ccc(Cl)cc13)CCC2	0%	28µM*	-10%	-3%	-9%	0%	-12%
5	O=C(CN1CCC(C(=O)c2cccc(F)c2)CC1)NCc1cccs1	-4%	-3%	-1%	-11%	1%	-1%	-10%
6	CC1=C(C(=O)NCc2ccc3c(c2)OCO3)C2(CCC(C)CC2)OC1=O (stereo not given)	0%	i	-5%	-9%	-5%	1%	-16%
7	O=C(/C=C/c1ccc(Cl)c(Cl)c1)NCc1ccco1	5%	-1%	2%	-9%	0%	3%	-4%
8	COc1cccc(NC(=O)CSC(N)=O)c1	16%	-1%	3%	0%	2%	-4%	-1%
9	Nc1n[nH]c2cc(=O)n(-c3cccc(C(F)(F)F)c3)nc12	-19%	-8%	10%	5%	10%	0%	-9%
10	COc1ccc(-c2cc(C(F)(F)F)nc(SCC(=O)Nc3ccc4c(c3)OCO4)n2)cc1OC	10%	-10%	?	6%	-6%	-1%	-6%
11	COc1cccc(-c2nc(-c3ccc(NC(=O)c4cccs4)cc3)no2)c1	9%	-9%	?	4%	?	-4%	8%
12	COc1ccc(-c2nc(-c3ccc(NC(=O)c4ccncc4)cc3)no2)cc1OC	-2%	11%	-20%	-7%	-4%	1%	3%

(next part)
Abbreviations: A = RGS12 GoLoco inh; B = RECQ1 helicase; C = KDM4E inh; D = TRb-SRC2 inh; E = Tau fibril FP; F = TexasRed fluor; G = Tau fibril ThT
16. O=c1c2c(nc3cc(-c4ccc(F)cc4)[nH]n13)CCC2
  A: -19%; B: 8%; C: -2%; D: 6%; E: 6%; F: -2%; G: 7%

17. Cc1ccsc1C(=O)OCC(=O)NCc1ccco1
  A: 6%; B: i; C: 4%; D: -9%; E: 0%; F: 1%; G: -2%

18. Cc1nc(SCC(=O)Nc2ccc(C)c(F)c2)c2oc3ccccc3c2n1
  A: 1%; B: 5%; C: 13%; D: 0%; E: -6%; F: -2%; G: -1%

19. CCOC(=O)C1=C(COCCN)NC(C)=C(C(=O)OC)C1c1ccccc1Cl (stereo not given)
  A: 5%; B: 15%&-7%&-14%; C: -22%; D: 6%&-3%&-9%; E: -9%; F: 1%&2%&-4%; G: -20%

20. COc1cccc(-c2nc(-c3ccc(NC(=O)Cc4ccccc4OC)cc3)no2)c1
  A: 1%; B: -6%; C: ?; D: -13%; E: ?; F: -1%; G: 9%

21. Cc1ccc(C(=O)N/N=C\c2ccc(-c3ccc(Cl)c(Cl)c3)o2)cn1
  A: 5%; B: -1%; C: 3%; D: 3%; E: -1%; F: 5%; G: 9%

22. CC(=O)OCC1=C(C(=O)O)N2C(=O)[C@@H](NC(=O)CSc3ccncc3)[C@@H]2SC1
  A: 0%[21.6 µM]; B: -8%[25.9 µM]; C: 4%[25.5 µM]; D: -5%; E: nt; F: -1%; G: nt

23. CCOC(=O)CCC(NC(=O)CCCCC(=O)NC(CCC(=O)OCC)C(=O)OCC)C(=O)OCC (stereo not given)
  A: 1%; B: 3%; C: -5%; D: 5%; E: 7%; F: 6%; G: 0%

24. O=C(Nc1nnc(-c2ccncc2)o1)c1ccccc1
  A: 9%; B: 5%; C: ?; D: -2%; E: -4%; F: 1%; G: -6%

25. Cc1ccc(SCC(=O)Nc2cccc(NC(=O)c3ccco3)c2)cc1
  A: 8%; B: -5%; C: 9%; D: 6%; E: -7%; F: -1%; G: -5%

26. Cc1nc(SCC(=O)NCc2ccco2)c2oc3ccccc3c2n1
  A: nt; B: -12%; C: -3%; D: -4%; E: 3%; F: 0%; G: -2%

27. CCCC(=O)NC(=S)Nc1cccc(NC(=O)c2ccc(Cl)cc2Cl)c1
  A: nt; B: i; C: -2%; D: 2%; E: 1%; F: -3%; G: -6%

28. Cc1nc(S/C(=C/c2ccc(-c3ccc(C(=O)O)cc3)o2)C(=O)O)n[nH]1
  A: 1%; B: -8%; C: -13%; D: 1%; E: -14%; F: -22%; G: 4.5µM*

29. CC(C)c1nc(NCC2CCCO2)c(C#N)c2c1COC(C)(C)C2 (stereo not given)
  A: -1%; B: -8%; C: ?; D: 4%; E: 4%; F: -1%; G: -13%

30. COc1ccccc1N(CC(=O)NC1CCCC1)C(=O)c1csnn1
  A: -3%; B: -3%; C: -4%; D: -7%; E: 0%; F: 0%; G: -12%

31. COc1ccc(NC(=O)CSc2ccc(-c3ccccn3)nn2)cc1OC
  A: 12%; B: -5%; C: ?; D: -16%; E: -4%; F: 1%; G: ?

32. COC(=O)C1C(O)=C(C=Nc2ccc3ccccc3c2)C(=O)CC1(C)C (stereo not given)
  A: 11%; B: -15%; C: -11%; D: 1%; E: 5%; F: -3%; G: -9%
